BJeLR viability: BJeLR cell viability loss. AID 1554. BJeLR (HRASV12) viability, CellTiter-Glo ATP luminescence, 48 h; reference of the scale not given here. inhibition, % (concentration not given with the values). 0.17% of 300,000 active;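 active means replicate mean above 50%; inconclusive means above 50% but judged a plate artefact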;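 further: 50 nL library stock added to about 25 µL; numbers are from one replicate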
Bead autofluor: counter-screen for toxin protease inhibitors: compound fluorescence; compound autofluorescence counterscreen, microsphere flow cytometry; hits give high values; fluorescence intensity (test concentration not listed); 3.1% of 360,000 active; AID 624483;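 active means at least 3 SD above the mean of all compounds, about 16000 in these data; inconclusive means too few beads counted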;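 further: 100 nL of 1 mM stock went into each well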
PrP UTR inh: inhibition of PrP 5' UTR reporter expression. AID 488862. cell-based PrP 5' UTR mRNA reporter, plate reader. inhibition, % (no concentration beside the values). 0.35% of 340,000 active;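 active means every replicate at 50% or more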;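 further: 0 = median of the neutral control wells; tested in H4 reporter cells; numbers are from one replicate; inactives centre near -14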
Mtb hypoxia rep: Mtb hypoxia fluorescent reporter inhibition; M. tuberculosis hypoxia-regulated fluorescent reporter, fluorescence; fluorescence inhibition, % (test concentration not listed); 0.1% of 300,000 active;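 active means 35 to 45% if threefold the growth effect, above 45% if 1.5-fold the growth effect; inactive means the rest, general growth blockers included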;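 further: wells of about 50 µL received 100 nL stock; 0% = vehicle wells and 100% = reference inhibitor wells; whole bacteria with a GFP reporter of the hypoxia response; strong numbers were not always called active; many hits fall short of the cut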
ugtP null kill: growth inhibition of S. aureus ugtP deletion strain. S. aureus RN4220 ugtP deletion, OD600 growth, 16 h; some inactives read as strong as hits. growth inhibition, % (concentration not given with the values). 0.54% of 330,000 active. AID 1259309;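 active means z-score under -3 and OD600 up to 0.15 on both plates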;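 further: plate controls were untreated wells for no effect and antibiotic for full effect; wells of about 80 µL received 100 nL stock; the first replicate is given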
RN4220 kill: kills Staphylococcus aureus RN4220; S. aureus RN4220 growth, OD600, 16 h; inhibition, % (no concentration beside the values); 0.33% of 330,000 active; AID 1259311;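 active means z-score of -3 or lower and OD600 up to 0.18 on both plates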;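 further: plate controls were untreated cells for no effect and reference antibiotic for full effect; stock transfer was 100 nL into about 80 µL; one replicate is shown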
Mtb hypoxia rep growth: further read-out of Mtb hypoxia rep, marked with its call; growth inhibition, %; measured here: M. tuberculosis growth (absorbance);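 0% = vehicle and 100% = reference antibiotic; read after six days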
* marks the source's active call; other numbers are inactive results; ? = inconclusive; / = no result given. This is a random part of the collection (roughly 4% active in at least one column).

Start of the data: the first 3 compounds, to show the layout:
SMILES	BJeLR viability	Bead autofluor	PrP UTR inh	Mtb hypoxia rep	Mtb hypoxia rep growth	ugtP null kill	RN4220 kill
O=C(NN=Cc1ccc(O)cc1)/C(=C/c1ccc([N+](=O)[O-])cc1)NC(=O)c1ccccc1	/	/	/	7.0	6.5	-12.1	4.2
CC(=NNc1cc(Cl)nc(C)n1)c1ccc(C)cc1	/	/	/	5.5	4.6	44.3	2.6
CCCn1cc(SCC(=O)Nc2ccc3c(c2)OCO3)c2ccccc21	-0.9	5330	-11.4	-12.8	1.4	3.6	25.7

The listing, from the start:
SMILES	BJeLR viability	Bead autofluor	PrP UTR inh	Mtb hypoxia rep	Mtb hypoxia rep growth	ugtP null kill	RN4220 kill
O=C(NN=Cc1ccc(O)cc1)/C(=C/c1ccc([N+](=O)[O-])cc1)NC(=O)c1ccccc1	/	/	/	7.0	6.5	-12.1	4.2
CC(=NNc1cc(Cl)nc(C)n1)c1ccc(C)cc1	/	/	/	5.5	4.6	44.3	2.6
CCCn1cc(SCC(=O)Nc2ccc3c(c2)OCO3)c2ccccc21	-0.9	5330	-11.4	-12.8	1.4	3.6	25.7
COc1ccc(CCNC(=O)CCCOc2cc(=O)n(C)c3ccccc23)cc1OC	2.5	2449	-10.1	6.8	10.1	-4.4	3.7
O=C(CN1C(=O)NC2(CCc3ccccc32)C1=O)c1ccc(Br)cc1 (stereo not drawn)	-11.7	?	-6.1	-1.7	5.9	-7.3	-2.8
CCOC(=O)c1ccc(NC(=O)COc2ccc(S(=O)(=O)N3CCCC3)cc2)cc1	-0.5	10544	-46.0	2.3	5.5	-2.9	0.7
CC(C(=O)c1ccccc1)[n+]1cccc(C(N)=O)c1 (stereo not drawn)	0.3	3921	-14.7	2.8	-8.4	8.9	3.8
CC1(C(=O)N2CC3(CC(c4cccc([N+](=O)[O-])c4)=NO3)C[C@H]2C(=O)NCC(N)=O)CC1 (stereo partly drawn)	13.5	4182	-6.0	/	/	/	/
Cc1cc([N+](=O)[O-])c(N2CCC[C@@H]2C(=O)O)c([N+](=O)[O-])c1	-3.3	9157	-7.7	9.1	5.3	-6.1	4.1
C[C@]12CCC(O)CC1CCC1C2CC[C@]2(C)C(C3=CC(=O)OC3)CC[C@]12O (stereo partly drawn)	/	/	/	3.4	-0.6	9.3	5.6
CCOC(=O)c1ccc(NCCOC)c([N+](=O)[O-])c1	-1.2	4282	-28.9	5.1	19.0	5.3	5.2
CCOc1ccccc1N1CCN(C(=O)c2ccccc2)CC1	3.1	8323	-35.0	11.4	8.6	-1.3	0.9
CN1CCN(CC(=O)Nc2ccc(S(=O)(=O)N(C)C)cc2)CC1	0.3	3809	-29.6	6.0	4.2	16.9	-1.1
COc1cccc(/C=C/C(=O)OCC(=O)N2CCCC2)c1OC	/	3857	-25.5	12.1	3.4	3.9	2.2
Nc1sc(-c2ccccc2)n[n+]1Cc1cccc2cccnc12	-1.0	4333	/	3.2	7.3	18.5	7.1
Cc1ccc(NC(=O)COc2ccccc2C(=O)NCCc2ccccc2)cc1	-1.4	4271	-27.6	14.0	10.4	-11.0	-8.3
COc1ccc(N2CCN(C(=O)Nc3cccc(C(F)(F)F)c3)CC2)cc1	-15.5	4175	-0.6	/	/	7.4	-3.5
CCOc1ccc2oc(C(=O)N(Cc3nnc(-c4ccccc4Cl)o3)C3CC3)c(C)c2c1	-9.5	5365	-10.9	6.8	6.9	24.7	3.0
CC(CC(=O)Nc1nc2ccccc2[nH]1)c1ccccc1 (stereo not drawn)	-2.4	3068	-79.3	8.1	6.0	-9.1	4.1
CCCc1ccc(-c2ccc(/C=C/C(=O)O)cc2)nc1	16.8	2459	47.8	7.5	9.3	0.5	-0.9
CC(=O)N(\C=C/C=C/C=C1\Sc2ccccc2C1=O)c1ccccc1	4.8	5341	-6.4	-6.5	-0.9	-7.3	0.6
O=C(Nc1cccc(C(=O)O)c1)/C(=C/c1ccc([N+](=O)[O-])cc1)NC(=O)c1ccccc1	-7.7	3157	-12.0	9.4	3.7	-1.2	4.7
CCn1c(SCC(=O)NCc2ccc3c(c2)OCO3)nnc1-c1c[nH]c2ccccc12	-6.3	3148	-3.0	11.4	18.8	-9.2	-8.6
COc1cccc(C2NC(=O)N(CCCC(=O)O)C(C)=C2C(=O)OCc2ccccc2)c1 (stereo not drawn)	-0.3	/	/	4.9	12.8	6.7	0.8
O=C(CSc1nnnn1C1CCCCC1)N1CCN(C(=O)c2ccco2)CC1	-0.9	4949	-18.2	-1.4	3.9	4.3	3.9
O=C(CSc1nnc(-c2ccco2)n1-c1ccccc1)NCC1CCCO1 (stereo not drawn)	-2.0	5268	7.1	0.0	2.0	1.4	1.0
CCCCC1(CCO)C(=O)NC(=S)NC1=O	/	3903	-23.1	5.1	0.6	0.1	1.0
COc1ccc(Cl)cc1N=Cc1c(O)c2ccccc2oc1=O	-5.7	3725	-19.5	5.5	7.5	4.5	-2.2
O=C(NCc1ccc2c(c1)OCO2)c1c(-c2ccsc2)sc2ccccc12	/	4203	-17.9	7.4	4.9	13.5	24.8
Cc1c(NS(=O)(=O)c2cc(C(=O)NCc3cccc(Cl)c3)ccc2Cl)c(=O)n(-c2ccccc2)n1C	/	3820	-32.2	9.2	4.4	-4.0	-0.4
COc1ccc(CNc2oc(C)nc2C#N)cc1	-13.3	20862*	-11.9	5.0	9.7	1.8	9.0
CC(=O)N1CCN(c2ccccc2NC(=O)c2ccco2)CC1	0.9	5729	-14.3	14.1	0.5	-0.3	2.0
O=C(NCCC1=CCCCC1)C(=O)NCC(c1ccco1)N1CCN(c2ccccc2)CC1 (stereo not drawn)	-5.3	2229	13.8	3.9	-0.3	18.6	8.0
COc1cc2c(cc1O)C(Cc1ccc(O)cc1)[N+](C)([O-])CC2 (stereo not drawn)	-5.9	3687	-22.0	1.0	4.5	-19.1	-2.6
CN(C(=O)c1cccc(NC(=O)Cc2cccc(NC(=O)C3CCN(C(=O)c4ccccc4)CC3)c2)c1)C1CC1	/	3542	-26.1	-4.9	6.1	3.7	3.8
CCn1c(=O)n(CC)c2cc(N3CCCC3)c(NC(=O)c3ccccc3OC)cc21	-0.2	5358	-28.1	6.4	14.6	-9.9	3.0
CCOC(=O)c1sc(NC(=O)c2cc3n(n2)C(C(F)(F)F)CC(c2ccccc2)N3)c(C(=O)OCC)c1C (stereo not drawn)	-8.4	6714	-8.5	6.7	7.9	5.3	0.6
Cc1ccc(C)c(SCC(=O)OCC(=O)c2ccco2)c1	9.4	10139	-30.4	5.7	1.0	4.3	4.7
Cc1ccccc1-c1n[nH]c(=S)n1N=Cc1c(C)nn(-c2ccccc2)c1C	/	/	/	1.1	-3.7	12.8	4.0
CC1CCCCN1S(=O)(=O)c1ccc(S(=O)(=O)N(Cc2ccccc2)Cc2ccco2)cc1 (stereo not drawn)	5.7	5686	-18.4	7.3	2.9	9.2	7.9
COc1cccc(CN(C)CC(=O)NCc2ccc(C)cc2)c1	-9.9	2933	-9.1	-2.0	6.6	4.8	4.7
CC=CC1OCC(CC)C(CCC)O1 (stereo not drawn)	/	2810	5.4	4.2	7.0	-4.5	0.5
CC(C)(C)NC(=O)NC(=O)COC(=O)c1cccc(F)c1	-1.4	2484	10.2	-8.3	-8.3	4.9	2.4
O=C(CCCc1ccccc1)N1CCN(C2CCCCC2)CC1	-2.4	/	-24.0	-8.0	-9.4	13.9	1.9
O=C(Oc1cccc(C=NNc2nc(N3CCOCC3)nc(N3CCOCC3)n2)c1)c1ccco1	/	/	/	-9.4	-7.2	0.9	5.9
CC(=O)N1CCc2cc(S(=O)(=O)CCC(=O)N3CCc4ccccc4C3)ccc21	2.2	6613	-7.1	7.0	-1.9	6.5	1.9
CCCCNC(=O)CCC(=O)Nc1ccc2nc(N3CCN(C)CC3)cc(C)c2c1	3.7	3316	5.8	-10.6	9.7	-1.7	5.6
O=C(Nc1nnc(Cc2ccc(Cl)cc2)s1)C1CCCO1 (stereo not drawn)	-1.2	6418	-40.4	-3.4	-2.0	5.9	7.5
COc1cc(O)c(C(CCN2CCCC2)c2ccc3c(c2)OCO3)c(OC)c1 (stereo not drawn)	9.8	4112	-23.7	8.3	9.9	2.6	1.9
c1ccc(CCSc2ncnc3nc[nH]c23)cc1	4.2	1991	-51.3	-10.9	3.4	16.3	1.8
Cc1ccc(OCC(=O)NN=Cc2ccncc2)cc1C	/	/	/	-5.5	-6.4	-0.4	0.3
O=C(COC(=O)c1cc(F)cc(F)c1)NCCCc1ccccc1	-2.5	3733	-12.5	3.1	-5.8	9.3	-1.3
Cc1ccc(/C=C/C(=O)OC(C)C(=O)NC2CCCCC2C)o1 (stereo not drawn)	1.4	?	1.3	3.9	2.9	0.0	4.0
N/C(=N\OC(=O)c1ccco1)c1ccccc1	4.8	5203	-82.8	-1.3	7.4	1.1	3.6
CN(C)S(=O)(=O)c1cccc(NC(=O)c2ccc3nccnc3c2)c1	0.9	4620	4.7	12.8	14.5	7.0	0.4
COCCCN1C(=O)C(O)=C(C(C)=O)C1c1ccccn1 (stereo not drawn)	6.3	4701	-0.5	/	/	0.2	3.0
CC1CCCCC1NC1CCN(C)CC1 (stereo not drawn)	-6.1	?	-14.7	5.7	0.5	5.1	5.1
O=C(Nc1ccon1)c1ccc(N2CCCCC2)c([N+](=O)[O-])c1	6.2	2175	-113.3	-0.8	-0.9	0.7	0.5

Part of the list above, in markdown.
| molecule | BJeLR viability | Bead autofluor | PrP UTR inh | Mtb hypoxia rep | Mtb hypoxia rep growth | ugtP null kill | RN4220 kill |
| --- | --- | --- | --- | --- | --- | --- | --- |
| Cc1ccc(C)c(SCC(=O)OCC(=O)c2ccco2)c1 | 9.4 | 10139 | -30.4 | 5.7 | 1.0 | 4.3 | 4.7 |
| Cc1ccccc1-c1n[nH]c(=S)n1N=Cc1c(C)nn(-c2ccccc2)c1C | / | / | / | 1.1 | -3.7 | 12.8 | 4.0 |
| CC1CCCCN1S(=O)(=O)c1ccc(S(=O)(=O)N(Cc2ccccc2)Cc2ccco2)cc1 (stereo not drawn) | 5.7 | 5686 | -18.4 | 7.3 | 2.9 | 9.2 | 7.9 |
| COc1cccc(CN(C)CC(=O)NCc2ccc(C)cc2)c1 | -9.9 | 2933 | -9.1 | -2.0 | 6.6 | 4.8 | 4.7 |
| CC=CC1OCC(CC)C(CCC)O1 (stereo not drawn) | / | 2810 | 5.4 | 4.2 | 7.0 | -4.5 | 0.5 |
| CC(C)(C)NC(=O)NC(=O)COC(=O)c1cccc(F)c1 | -1.4 | 2484 | 10.2 | -8.3 | -8.3 | 4.9 | 2.4 |
| O=C(CCCc1ccccc1)N1CCN(C2CCCCC2)CC1 | -2.4 | / | -24.0 | -8.0 | -9.4 | 13.9 | 1.9 |
| O=C(Oc1cccc(C=NNc2nc(N3CCOCC3)nc(N3CCOCC3)n2)c1)c1ccco1 | / | / | / | -9.4 | -7.2 | 0.9 | 5.9 |
| CC(=O)N1CCc2cc(S(=O)(=O)CCC(=O)N3CCc4ccccc4C3)ccc21 | 2.2 | 6613 | -7.1 | 7.0 | -1.9 | 6.5 | 1.9 |
| CCCCNC(=O)CCC(=O)Nc1ccc2nc(N3CCN(C)CC3)cc(C)c2c1 | 3.7 | 3316 | 5.8 | -10.6 | 9.7 | -1.7 | 5.6 |
| O=C(Nc1nnc(Cc2ccc(Cl)cc2)s1)C1CCCO1 (stereo not drawn) | -1.2 | 6418 | -40.4 | -3.4 | -2.0 | 5.9 | 7.5 |
| COc1cc(O)c(C(CCN2CCCC2)c2ccc3c(c2)OCO3)c(OC)c1 (stereo not drawn) | 9.8 | 4112 | -23.7 | 8.3 | 9.9 | 2.6 | 1.9 |
| c1ccc(CCSc2ncnc3nc[nH]c23)cc1 | 4.2 | 1991 | -51.3 | -10.9 | 3.4 | 16.3 | 1.8 |
| Cc1ccc(OCC(=O)NN=Cc2ccncc2)cc1C | / | / | / | -5.5 | -6.4 | -0.4 | 0.3 |
| O=C(COC(=O)c1cc(F)cc(F)c1)NCCCc1ccccc1 | -2.5 | 3733 | -12.5 | 3.1 | -5.8 | 9.3 | -1.3 |
| Cc1ccc(/C=C/C(=O)OC(C)C(=O)NC2CCCCC2C)o1 (stereo not drawn) | 1.4 | ? | 1.3 | 3.9 | 2.9 | 0.0 | 4.0 |
| N/C(=N\OC(=O)c1ccco1)c1ccccc1 | 4.8 | 5203 | -82.8 | -1.3 | 7.4 | 1.1 | 3.6 |
| CN(C)S(=O)(=O)c1cccc(NC(=O)c2ccc3nccnc3c2)c1 | 0.9 | 4620 | 4.7 | 12.8 | 14.5 | 7.0 | 0.4 |

Compound activity as filed in PubChem.
